Compound activity deposited in PubChem BioAssay by Vanderbilt University.
GIRK2 activ: activators of human GIRK2 potassium channels; G protein-activated inward rectifier potassium channel 2 (Homo sapiens), P48051; HEK293-GIRK2 thallium flux, Thallos fluorescence; calls only for hits at 25 µM; hit rate 0.05% among 63,000;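 active = among the strongest 0.2% of first-round signals and kept after retests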;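 also: first round at about 10 µM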
Target sequence (P48051 whole entry, looked up): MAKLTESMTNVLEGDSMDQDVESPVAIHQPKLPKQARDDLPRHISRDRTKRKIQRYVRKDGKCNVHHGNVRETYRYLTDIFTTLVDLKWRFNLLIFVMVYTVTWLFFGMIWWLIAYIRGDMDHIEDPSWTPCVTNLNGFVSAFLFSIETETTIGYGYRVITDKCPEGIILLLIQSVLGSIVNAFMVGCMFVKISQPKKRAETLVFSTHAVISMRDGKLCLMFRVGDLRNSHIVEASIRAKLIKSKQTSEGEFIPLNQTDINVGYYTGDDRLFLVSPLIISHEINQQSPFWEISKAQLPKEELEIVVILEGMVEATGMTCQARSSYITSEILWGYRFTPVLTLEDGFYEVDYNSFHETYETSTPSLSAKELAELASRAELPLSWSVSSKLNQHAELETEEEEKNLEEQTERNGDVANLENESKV
Calls only; i = inactive.

SMILES	GIRK2 activ
Cc1cc(C)c(C)c(S(=O)(=O)Nc2ccc(C(=O)N3CC(C)OC(C)C3)cc2)c1C (configuration not stated)	i
Cc1cc(C)n(-c2ccc(=O)n(C(C)C(=O)NCc3ccccc3OC(F)(F)F)n2)n1 (configuration not stated)	i
CN(C)S(=O)(=O)c1ccc(C(=O)NCc2cccnc2)cc1	i
O=C1CCc2cc(NC(=O)c3ccno3)ccc2N1	i
O=C(CN1CCN(S(=O)(=O)N2CCCCCC2)CC1)Nc1cc(Cl)ccc1Cl	i
OC1C=CC(O)C23OC12C(O)C=CC31Oc2cccc3cccc(c23)O1 (configuration not stated)	i
CSCC(C)(O)CNC(=O)c1cccc(F)c1 (configuration not stated)	i
CCOC(=O)CNC(=O)CSc1nnc(C)c2cnn(-c3ccccc3OC)c12	i
Cc1ccc2c(c1)C(=O)NC1(CCN(C(=O)c3ccc(Br)cc3)CC1)N2C	i
O=C(CSc1nc2ccccc2s1)N1CC(c2nc(-c3ccc[nH]c3=O)no2)C1	i
COc1ccc(-n2ncc3c(=O)n(Cc4nc(-c5ccc6c(c5)OCO6)no4)cnc32)cc1	i
CCC(=O)N1CCc2ccc(NS(=O)(=O)Cc3ccc(C(F)(F)F)cc3)cc2C1	i
COc1ccc(-c2noc(Cn3ccn(-c4cc(C)cc(C)c4)c(=O)c3=O)n2)cc1	i
COc1cc(NC(=O)Cn2cccc(S(=O)(=O)N3CCOCC3)c2=O)cc(OC)c1	i
O=C(NCC1CCN(C(=O)c2cc3ccccc3o2)CC1)c1cc(C2CC2)on1	i
Oc1ccc(Br)cc1C(=S)N1CCN(C(=S)Nc2ccccc2)CC1	i
C=CCOC(=O)C1=C(C)NC(=O)NC1c1cccc(OC)c1OC (configuration not stated)	i
O=S(=O)(NCC1(c2ccccc2)CCOCC1)c1cccc2ccccc12	i
Cc1ccc(C)c2sc(N(C)CC(=O)NCCc3ccc(S(N)(=O)=O)cc3)nc12	i
Cc1ccc(NC(=O)Cn2nc(-c3cccs3)ccc2=O)cc1	i
CC1CCC(C(=O)NC2CCN(C(=O)c3cc(-c4ccccc4)n[nH]3)CC2)CC1 (configuration not stated)	i
CC(C)(C)C(=O)NCC(O)c1cccc2ccccc12 (configuration not stated)	i
O=c1oc2ccccc2n1CCOc1ccc(Cl)cc1	i
CCCN1C(SCC(=O)Nc2cccc(Cl)c2Cl)=NS(=O)(=O)c2ccccc21	i
CCCNC(=O)C(=O)NCC1OCCCN1S(=O)(=O)c1ccc(OC)c(OC)c1 (configuration not stated)	i
COC(=O)c1ccc2c(=O)n(CCC(=O)NC(C)c3ccccc3)c(=S)[nH]c2c1 (configuration not stated)	i
O=C(Oc1ccc(Br)cc1)c1cc([N+](=O)[O-])ccc1Cl	i
NCc1cccc(Oc2ccc(F)cc2)c1	i
CCCC(=O)N1CCC(N2CCCC2=O)CC1	i
COc1ccc2cccc(NC(=O)c3cc(C)cs3)c2n1	i
COc1ccc(-c2nc3c4cnn(-c5ccccc5C)c4ncn3n2)cc1OC	i
COc1ccccc1C(=O)Nc1nonc1-c1ccc(C)cc1	i
Cc1ccc(CNC(=O)CSc2nc3c(-c4ccc(C)cc4)csc3c(=O)n2C)cc1	i
CCOc1ccc(-n2c(N3CCSCC3)nc3cc(C(=O)OC)ccc3c2=O)cc1	i
O=C(Cc1csc(-n2cccc2)n1)NCCc1c[nH]c2ccccc12	i
CCN(CC)C(=O)c1cnc2nc(C)ccc2c1Nc1cccc(Br)c1	i
Cc1cccc2sc(N3CC(OC(=O)/C=C/c4ccco4)C3)nc12	i
COc1ccc(Cc2nnc(Nc3ccc(OC)c(OC)c3)[nH]c2=O)cc1	i
COc1ccc(-c2noc(C3CCN(CC(=O)Nc4cccc(C(C)=O)c4)CC3)n2)cc1	i
COc1ccc(S(=O)(=O)N2CCCc3cc(NS(=O)(=O)c4ccc(F)cc4)ccc32)cc1	i
COc1ccccc1NC(=O)N(Cc1ccsc1)CC(F)(F)F	i
COC(=O)c1ccc(NC(=O)Cn2cccc(S(=O)(=O)N3CCCCCC3)c2=O)cc1	i
COc1ccc(-c2cc3c(=O)[nH]nc(SCc4ccc(C)cc4)n3n2)cc1OC	i
COc1cccc(COc2cn(C)c(C(=O)NCc3ccncc3)cc2=O)c1	i
O=C(c1ccc2nsnc2c1)N1CC(c2nc(-c3cccs3)no2)C1	i
CCN(CC)CC#CCOC(=O)C(O)(c1ccccc1)C1CCCCC1 (configuration not stated)	i
COc1ccc(CCNC(=O)Cn2cccc(-c3nc(-c4ccc(C)cc4)no3)c2=O)cc1OC	i
Cc1ccc(S(=O)(=O)N2CCN(Cn3cnc4ccccc43)CC2)cc1C	i
COCCN1CCC(NC(=O)c2ccc(OC)c(OC)c2)CC1	i
CCn1c(=O)c(C(=O)Nc2cccc(SC)c2)c(O)c2sccc21	i
CC(C)OCCCNC(=O)c1cc2c(=O)n(C)c(=O)n(C)c2n1Cc1ccco1	i
CCC(NC(=O)c1nnn2cc(C)[nH]c(=O)c12)c1cccs1 (configuration not stated)	i
CC(NC(=O)c1cc2cc(Cl)cc(Cl)c2oc1=O)c1ccc(-n2ccnc2)cc1 (configuration not stated)	i
O=C(Nc1nc(-c2ccccn2)cs1)C1CCN(S(=O)(=O)c2ccc(Cl)s2)CC1	i
CCOc1ccc(Cc2nnc(Nc3cc(OC)ccc3OC)[nH]c2=O)cc1	i
O=C(O)Cc1ccc(Br)cc1[N+](=O)[O-]	i
CN(C)C(=O)c1nnn(-c2ccc(NC(=O)CC3CCCC3)cc2)n1	i
COc1ccc2c(=O)c3c(=O)n(-c4ccccc4)c(C(C)C)nc3oc2c1	i
COc1ccccc1CNC(=O)CCn1cnc2c([nH]c3cc(OC)c(OC)cc32)c1=O	i
O=C(Nc1nc(-c2ccccc2)c(CN2CCOCC2)s1)c1ccccc1	i
Next compounds.
SMILES	GIRK2 activ
COCCNC(=O)C(=O)NCC1OCCCN1S(=O)(=O)c1cc(C)ccc1C (configuration not stated)	i
COc1cccc2cc(C(=O)NCC#CCOc3ccc4c(c3)OCO4)c(=O)oc12	i
COC(=O)CCN1C(=O)c2ccccc2C1=O	i
COc1ccccc1N1CCN(CCNC(=O)C(=O)NC2CC2)CC1	i
Cc1ccc(NC(=O)C(c2ccccc2)N2CCOCC2)cc1 (configuration not stated)	i
CCc1nc2sc(C(c3cccc(Cl)c3)N3CCCC(C)C3)c(O)n2n1 (configuration not stated)	i
CCC(C)n1c(C)c(C)n2c3c(=O)n(Cc4ccccc4C)c(=O)n(C)c3nc12 (configuration not stated)	i
COc1ccc(NC(=O)C(=O)NC(c2ccccc2)c2ccccc2)cc1OC	i
COc1ccc(CNC(=O)Cn2nc3c4cc(-c5ccc(C)c(C)c5)nn4ccn3c2=O)cc1	i
Cc1nn(C)c2cc(N(C)c3ccnc(Nc4cccc(S(N)(=O)=O)c4)n3)ccc12	i
COc1cccc2c1OCC(=O)N(C(C)c1cccs1)C2 (configuration not stated)	i
Cn1c(=O)c2c(nc(N3CCCC3)n2CC(O)COc2ccc(Cl)cc2)n(C)c1=O (configuration not stated)	i
CN(C)S(=O)(=O)Nc1ccc(-n2nnn(C)c2=O)cc1	i
O=C(NCC#CCOc1ccc2c(c1)OCO2)c1ccco1	i
CCc1ccc(NCCn2c(C)c(C)n3c4c(=O)n(C)c(=O)n(C)c4nc23)cc1	i
O=C(CSc1nnc2scc(-c3ccc(Cl)cc3)n12)NCCc1ccccc1	i
Cc1nnc(NC(=O)C2COCC(=O)N2Cc2ccccc2)s1 (configuration not stated)	i
CCC(=O)Nc1ccc(S(=O)(=O)NCCNC(=O)c2ccc(NC(C)=O)cc2)cc1	i
O=C(NC1CCCC1)c1ccc(Cn2c(=O)[nH]c3ccccc3c2=O)cc1	i
Cc1nc(-c2nnc(NC(=O)c3cc(Cl)cc(Cl)c3)o2)cs1	i

Some of the entries above in another layout:
GIRK2 activ	mol
i	COC(=O)CCN1C(=O)c2ccccc2C1=O
i	COc1ccccc1N1CCN(CCNC(=O)C(=O)NC2CC2)CC1
i	Cc1ccc(NC(=O)C(c2ccccc2)N2CCOCC2)cc1 (configuration not stated)
i	CCc1nc2sc(C(c3cccc(Cl)c3)N3CCCC(C)C3)c(O)n2n1 (configuration not stated)
i	CCC(C)n1c(C)c(C)n2c3c(=O)n(Cc4ccccc4C)c(=O)n(C)c3nc12 (configuration not stated)
i	COc1ccc(NC(=O)C(=O)NC(c2ccccc2)c2ccccc2)cc1OC
i	COc1ccc(CNC(=O)Cn2nc3c4cc(-c5ccc(C)c(C)c5)nn4ccn3c2=O)cc1
i	Cc1nn(C)c2cc(N(C)c3ccnc(Nc4cccc(S(N)(=O)=O)c4)n3)ccc12
i	COc1cccc2c1OCC(=O)N(C(C)c1cccs1)C2 (configuration not stated)
i	Cn1c(=O)c2c(nc(N3CCCC3)n2CC(O)COc2ccc(Cl)cc2)n(C)c1=O (configuration not stated)
i	CN(C)S(=O)(=O)Nc1ccc(-n2nnn(C)c2=O)cc1
i	O=C(NCC#CCOc1ccc2c(c1)OCO2)c1ccco1
i	CCc1ccc(NCCn2c(C)c(C)n3c4c(=O)n(C)c(=O)n(C)c4nc23)cc1
i	O=C(CSc1nnc2scc(-c3ccc(Cl)cc3)n12)NCCc1ccccc1
i	Cc1nnc(NC(=O)C2COCC(=O)N2Cc2ccccc2)s1 (configuration not stated)
i	CCC(=O)Nc1ccc(S(=O)(=O)NCCNC(=O)c2ccc(NC(C)=O)cc2)cc1
i	O=C(NC1CCCC1)c1ccc(Cn2c(=O)[nH]c3ccccc3c2=O)cc1

Reprinted at random: 2 entries already listed, in no set order.
SMILES	GIRK2 activ
O=C(NCC1CCN(C(=O)c2cc3ccccc3o2)CC1)c1cc(C2CC2)on1	i
CCc1nc2sc(C(c3cccc(Cl)c3)N3CCCC(C)C3)c(O)n2n1 (configuration not stated)	i

Next results
SMILES	GIRK2 activ
COc1ccc(S(=O)(=O)NCCNc2cc(N(C)C)nc(C)n2)cc1Cl	i
Cc1cc(=O)n2c(n1)SCC2CC(=O)Nc1ccccc1-c1ccc(=O)[nH]n1 (configuration not stated)	i
CN1CCN(C(CNS(=O)(=O)c2ccc(F)c(C(F)(F)F)c2)c2ccc3c(c2)OCO3)CC1 (configuration not stated)	i
O=C(C1CC(=O)N(c2ccc(F)cc2)C1)N1CCN(Cc2nnnn2-c2ccccc2)CC1 (configuration not stated)	i
C=C(C)Cn1c(N2CCOCC2)nc2c1c(=O)[nH]c(=O)n2C	i
COc1ccc(-c2csc(-c3nnn(-c4cccc(F)c4)c3C)n2)cc1OC	i
O=C(Cc1ccc(NC(=O)Oc2ccccc2)cc1)NC1CC1	i
O=[N+]([O-])c1ccccc1-c1ccc(-c2nnc(-c3ccco3)o2)o1	i
COc1ccc(CNC(=O)c2ccc(Nc3nn4c(=O)c5ccccc5nc4s3)cc2)cc1	i
COC(=O)CSc1nnc(-c2ccc(C(=O)O)cc2)o1	i
CCOc1ccc(-c2ncncc2Oc2ccccc2OCC)c(O)c1	i
COc1cc(OC)cc(C(=O)N(CCCn2ccnc2)c2nc3ccc(C)cc3s2)c1	i
COC(=O)c1ccc(CNC(=O)Cc2c(C)n(C(=O)c3ccc(Cl)cc3)c3ccc(OC)cc23)cc1	i
O=C(CC1CCCCC1)NC1CC(=O)N(C2CC2)C1 (configuration not stated)	i
O=C(NCCOc1ccccc1)NCC1COC2(CCCCC2)O1 (configuration not stated)	i
CCc1nccn1CC1CCN(C(=O)c2cccc(N(C)C)c2)CC1	i
COC(=O)c1ccc2c(=O)n(CCC(=O)NCCC(C)C)c(=S)[nH]c2c1	i
Cc1ccc(Cl)cc1NC(=O)C(=O)NCC1(CO)CC1	i
Cc1ccc(C)c(-c2nnc(NC(=O)CN3C(=O)CCC3=O)o2)c1	i
Cc1cc2nn(CC(=O)Nc3cc(F)ccc3F)c(=O)n2c(Nc2ccc(F)c(C)c2)n1	i
O=C(CCc1csc(NC(=O)c2ccc(=O)[nH]c2)n1)Nc1ccc(F)c(Cl)c1	i
COc1cccc2sc(N3CC(OC(=O)c4cc(=O)c5ccccc5o4)C3)nc12	i
C=CCn1c(=O)c(C(=O)Nc2cc(Cl)ccc2C)c(O)c2ccccc21	i
CCOC(=O)C(C)Oc1ccc2c(=O)c(Oc3cccc(OC)c3)coc2c1 (configuration not stated)	i
O=C(Cn1c(=O)oc2ccc(Cl)cc21)Nc1ccon1	i
Cc1ccc(C)c(CN(c2ccc(F)c(F)c2)S(=O)(=O)c2cccn3cnnc23)c1	i
COc1cccc(-n2nnc(C(=O)Nc3ccccc3OC)c2C)c1	i
Cc1nc2c(c(=O)n1CC(=O)NC(C)CCc1ccccc1)CN(Cc1ccccc1)CC2 (configuration not stated)	i
COc1ccc(N2C(=O)C3N=NN(Cc4cccc(Br)c4)C3C2=O)cc1 (configuration not stated)	i
COc1cc(NC(=O)CCCOc2ccccc2)c(OC)cc1Cl	i
Cc1cc(C(=O)Nc2sccc2-c2nc3ccccc3s2)c(C)o1	i
COC(=O)c1sc2ccccc2c1S(=O)(=O)Nc1ccc(Br)c(C)c1	i
COc1ccc(CCNC(=O)Cn2c(-c3ccncc3)nc3ccccc32)cc1OC	i
CC1CCCN(c2nccn3c(=O)n(CC(=O)Nc4ccc5c(c4)OCO5)nc23)C1 (configuration not stated)	i
O=C(c1ccc2c(=O)n(-c3ccccc3)c(=O)[nH]c2c1)N1CCc2ccccc2C1	i
Cn1nnn(-c2ccc(NC(=O)NC(c3ccccc3)c3ccccc3)cc2)c1=O	i
COc1cc(CCN2C(=O)c3cccc4cccc(c34)C2=O)c(S(=O)(=O)NCc2cccnc2)cc1OC	i
CCCn1c(=O)c2c(nc3n(-c4ccc(S(N)(=O)=O)cc4)c(C)cn23)n(C)c1=O	i
COCCNC(=O)NCC1CCN(S(=O)(=O)c2cccnc2)CC1	i
NC(=O)c1ccccc1OCC#CCNC(=O)C(=O)c1c[nH]c2ccccc12	i
CC(C)(C)CC(=O)N1CCN(CC(=O)c2ccco2)CC1	i
CCC(=O)NCC(Cc1cccc(F)c1)N1CCCCC1=O (configuration not stated)	i
C[n+]1ccccc1C=NO	i
O=C(c1ccc(S(=O)(=O)N2CCc3ccccc3C2)cc1)N(Cc1ccccc1)Cc1ccccc1	i
O=C(NCCn1ncccc1=O)C1CCN(c2ccc(-c3ccco3)nn2)CC1	i
CC(=O)Nc1c(-c2ccccn2)nsc1C(=O)N1CCN(c2cccc(Cl)c2)CC1	i

Some of the compounds tested; the hit share may differ from the screen's.
